Assay outcomes (PubChem BioAssay)
PABP polyA inh: PABP poly(A) RNA binding inhibitors, primary screen, biochemical, fluorescence polarization, uHTS. Polyadenylate-binding protein 1 (Homo sapiens), P11940. inhibition, % at 35 µM. actives 1% (n = 290,000). AID 2014, 2009;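 active means 50% or more with normal probe brightness, or confirmed in later tests; inconclusive means above 50% with abnormal brightness, or retests that disagree; inactive means below 50% or failed in later tests; about a fifth of its hits are not listed in these tables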;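 further: calls also rest on retests at 20 µM and on dose response follow-up; controls were probe without protein and protein plus probe with vehicle; some compounds called inactive have numbers as strong as hits; many hits fall short of the cut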
Target sequence (P11940 whole entry, looked up): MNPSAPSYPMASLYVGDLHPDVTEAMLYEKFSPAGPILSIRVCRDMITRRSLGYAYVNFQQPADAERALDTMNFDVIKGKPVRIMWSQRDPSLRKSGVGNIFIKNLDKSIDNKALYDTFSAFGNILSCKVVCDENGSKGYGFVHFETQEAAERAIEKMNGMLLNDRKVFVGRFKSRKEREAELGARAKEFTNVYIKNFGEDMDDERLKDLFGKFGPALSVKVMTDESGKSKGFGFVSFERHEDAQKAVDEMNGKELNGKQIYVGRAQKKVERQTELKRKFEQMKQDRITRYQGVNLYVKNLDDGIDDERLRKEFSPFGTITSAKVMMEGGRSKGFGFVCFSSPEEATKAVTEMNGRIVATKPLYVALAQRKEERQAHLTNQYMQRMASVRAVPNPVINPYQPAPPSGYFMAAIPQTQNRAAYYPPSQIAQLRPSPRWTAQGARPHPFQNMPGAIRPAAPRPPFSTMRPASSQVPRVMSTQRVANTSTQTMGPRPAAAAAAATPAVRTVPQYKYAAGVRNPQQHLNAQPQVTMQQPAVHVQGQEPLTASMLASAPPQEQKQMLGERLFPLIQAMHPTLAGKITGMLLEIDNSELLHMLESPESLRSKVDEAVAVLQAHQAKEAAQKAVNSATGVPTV
Env fusion inh: inhibitors of HIV-1 Env-driven cell-cell fusion, primary screen, HeLa-JRFL effector, CEM21 target cells, luciferase; inhibition, % at 12.3 µM; actives 1.1% (n = 360,000);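 active means mean replicate inhibition score of at least 50 and every replicate individually at or above 50; inconclusive means only one of the two criteria met; inactive means mean below 50 and not all replicates reaching 50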;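 further: 0% = plate neutral controls and 100% = maraviroc near 300 nM; one replicate is shown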
UUG fidelity: modulators of yeast start codon fidelity, primary screen, whole organism, S. cerevisiae, single point, plate reader; actives 0.13% (n = 350,000); activity score, % at 18.7 µM; S. cerevisiae UUG-firefly luciferase reporter, luminescence/redox ratio;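 active means replicate mean at a twofold rise or more, about +100% in these data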;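 further: firefly luciferase made from a UUG start codon reports start codon fidelity; reporter light over untreated wells divided by growth signal over untreated wells; some hits fall short of that in this replicate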
Rce1 inh: yeast Rce1p protease inhibitors, primary screen, biochemical, fluorescence, cell-free homogeneous | CAAX prenyl protease 2 (Saccharomyces cerevisiae (strain ATCC 204508 / S288c)), Q03530 | yeast membranes, quenched prenylated peptide cleavage fluorescence | calls only | actives 0.27% (n = 290,000) | AID 2563, 2010;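 active means fall in fluorescence gain of 50% or more versus controls, with final raw signal at or below 3038400; inconclusive means same 50% fall but final raw signal above 3038400; inactive means fall in fluorescence gain under 50%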;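 further: plate controls were neutral control wells for no effect and wells lacking membranes for full effect; tested at 10 µM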
Target sequence (Q03530 whole entry, looked up): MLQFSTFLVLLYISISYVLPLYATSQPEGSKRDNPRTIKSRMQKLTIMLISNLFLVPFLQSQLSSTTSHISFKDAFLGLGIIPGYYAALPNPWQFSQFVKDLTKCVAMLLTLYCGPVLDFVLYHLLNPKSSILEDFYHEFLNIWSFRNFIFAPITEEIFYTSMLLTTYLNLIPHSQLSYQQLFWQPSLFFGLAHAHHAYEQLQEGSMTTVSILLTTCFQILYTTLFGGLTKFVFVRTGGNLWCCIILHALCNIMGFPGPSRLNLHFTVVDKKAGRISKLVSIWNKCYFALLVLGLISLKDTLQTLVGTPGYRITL
CSC inhib: cancer stem cell viability inhibitors, primary screen, luminescence; cancer stem cell-like cells viability; inhibition, % at 7.5 µM; actives 1.1% (n = 300,000); AID 2717, 2010;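 active means mean at 75% or more and at least half the replicates too; inconclusive means mean and replicates disagree; tested in HMLE shEcad cells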;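 further: 0% = median of negative and 100% = median of positive control wells; the first replicate is given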
MT1-MMP act inh: blockers of MT1-MMP proenzyme processing, primary screen, HT1080 RFP-PRO-GFP cells, GFP/RFP fluorescence; Matrix metalloproteinase-14 (Homo sapiens), P50281; GFP/RFP ratio fluorescence, overnight; percent of plate control window, DMSO zero; GFP/RFP ratio change, % at 20 µM; actives 0.061% (n = 360,000); AID 651647, 2012;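 active means GFP/RFP ratio change of at least 30% with cell ATP level not reduced by more than half and red fluorescence within 50% of control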; further: strong numbers were not always called active
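Assay system: HT1080 RFP-PRO-GFP cells | Dosing: 20 µM single dose, 1% DMSO | Incubation: Cells overnight before dosing, compound overnight, 37 °C, 5% CO2 | Evaluation: GFP/RFP fluorescence ratio | Control set: DMSO-only wells and HT1080 RFP-L50D-GFP cell wells as references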
eIF4H inh: human eIF4H binding inhibitors, primary screen, translation initiation inhibitor project, biochemical, uHTS, fluorescence polarization; Eukaryotic translation initiation factor 4H (Homo sapiens), Q15056; eIF4H fluorescence polarization binding assay; inhibition, % at 35 µM; actives 0.94% (n = 290,000); AID 2012, 2009;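 active means 50% or more with normal probe brightness, or confirmed in later tests; inconclusive means above 50% with abnormal brightness, or retests that disagree; inactive means below 50% or failed in later tests; about a fifth of its hits are not listed in these tables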;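 further: calls also rest on retests at 20 µM and on dose response follow-up; 0% = protein and probe with vehicle and 100% = probe without protein; strong numbers were not always called active; many hits fall short of the cut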
MT1-MMP act inh RFP: also measured in MT1-MMP act inh; calls as there; RFP signal change, %; measured here: RFP expression control read;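 0 = vehicle wells; hits needed this value within 50% of zero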
The depositor's hits bear a star; i = inactive; ? = inconclusive; nt = not tested or not shown.

SMILES	PABP polyA inh	Env fusion inh	UUG fidelity	Rce1 inh	CSC inhib	MT1-MMP act inh	MT1-MMP act inh RFP	eIF4H inh
COc1cc(CN2CCCC(C(=O)c3ccc(C(C)(C)C)cc3)C2)cc(OC)c1O (stereo unspecified)	2	-35	1	i	15	3	0	-6
CC(=O)c1ccc(N2CCN(C(=S)Nc3cc(C)ccc3C)CC2)cc1	-21	-18	-9	i	-10	-1	-6	-19
CC1CC(C)CN(S(=O)(=O)c2ccc(Oc3ccc([N+](=O)[O-])cc3)cc2)C1 (stereo unspecified)	8	56*	-2	i	8	-10	-23	-3
COc1ccc(C2C(CC(=O)O)=C(O)C(=O)N2c2ccccc2)cc1 (stereo unspecified)	5	nt	0	i	1	-2	4	-4
CCOc1ccc(-c2cc(CCCC(=O)NCc3ccco3)no2)cc1	-18	25	-34	i	-8	0	-8	4
CC(C)CC(=O)CC1(O)C(=O)Nc2ccccc21 (stereo unspecified)	-2	-2	nt	i	24	-4	-2	5
Cc1cccn2c(CNCCCOc3cccnc3)c(C(=O)N3CCOCC3)nc12	-2	2	nt	i	9	0	4	-9
COc1cccc(CNC(=O)Cn2nc(-c3ccc(Cl)cc3)ccc2=O)c1	-2	-41	-3	nt	-6	-6	6	-2
O=C(COC(=O)Cc1ccccc1F)Nc1ccc2c(c1)OCO2	-2	11	-10	i	-15	0	-4	2
Cc1ccccc1-c1nnc(SCC(=O)N(C)c2c(N)n(Cc3ccccc3)c(=O)[nH]c2=O)n1C	nt	-5	nt	i	2	6	4	nt
O=C(c1ccc(Cl)cc1)N1CCN(c2cccc3[nH]ccc23)CC1	1	9	nt	i	35	1	-2	-3
Nc1cc(Cl)ccc1C(=O)OCC(=O)NCc1cccs1	nt	nt	-3	nt	-1	0	-3	nt
O=C(Cc1csc(NC(=O)c2ccccc2)n1)NO	-1	1	-14	i	4	10	2	-4
COc1cc(NC(=O)c2cccs2)c(C(=O)OCC(=O)c2cc(C)n(-c3ccccc3)c2C)cc1OC	11	30	1	i	61	-7	3	-4
NC(=O)CSc1nnc(C2CC2)n1Cc1ccccc1	10	22	-10	i	9	3	5	-7
Cc1cc(C)n2c(SCc3ccc(C#N)cc3)nnc2n1	9	-22	-9	i	-8	2	0	1
CCc1ccc(/C=N/NC(=O)c2cc(C3CC3)nc3ccccc23)s1	4	-67	307*	i	-6	5	-6	-12
CCCCN(CC)C(=S)Nc1ccc2nc3n(c(=O)c2c1)CCCCC3	14	-25	-16	i	13	19	3	0
O=C(c1cc(Cl)nc2ccccc12)N1CCN(S(=O)(=O)c2ccccc2[N+](=O)[O-])CC1	-2	-23	17	i	6	0	-4	-5
CCOC(=O)C1CCCN(C(=O)c2cccc(S(=O)(=O)N(C)c3ccc(OC)cc3)c2)C1 (stereo unspecified)	nt	7	15	nt	nt	-4	-6	nt
Cc1ccccc1OCC(=O)Nc1ccc2c(c1)C(=O)c1ccccc1C2=O	7	-19	nt	i	15	6	2	-2
COc1cccc(/C=C2\SC(=S)N(CCCC(=O)Nc3ccc(C(=O)O)cc3)C2=O)c1	-2	-11	-22	i	-10	-1	2	-7
COC(=O)CSC(=S)N1C(C)CCCC1C (stereo unspecified)	14	-9	nt	i	-9	1	1	3
CCN(CC(=O)Nc1ccc(NC(C)=O)cc1)C(=O)CN1C(=O)NC(C)(c2ccc3ccccc3c2)C1=O (stereo unspecified)	nt	5	2	nt	nt	0	2	nt
O=C1CCCN1c1ccc(S(=O)(=O)NCc2ccc(F)cc2)cc1	-6	-5	nt	i	4	-1	-2	-19

Single records, from the list above. Order of screens: PABP polyA inh | Env fusion inh | UUG fidelity | Rce1 inh | CSC inhib | MT1-MMP act inh | MT1-MMP act inh RFP | eIF4H inh
O=C(COC(=O)Cc1ccccc1F)Nc1ccc2c(c1)OCO2 as listed: -2 | 11 | -10 | i | -15 | 0 | -4 | 2
CCOc1ccc(-c2cc(CCCC(=O)NCc3ccco3)no2)cc1 as listed: -18 | 25 | -34 | i | -8 | 0 | -8 | 4

Next part
SMILES	PABP polyA inh	Env fusion inh	UUG fidelity	Rce1 inh	CSC inhib	MT1-MMP act inh	MT1-MMP act inh RFP	eIF4H inh
O=C(Nc1ncnc2c1CCC2)C12CC3CC(CC(C3)C1)C2	-6	nt	-3	i	8	4	-2	-11
CC(CC(=O)N1CCN(c2ccccc2)CC1)S(=O)(=O)c1ccc2c(c1)NC(=O)CS2 (stereo unspecified)	4	1	-9	i	5	4	-9	-10
COc1ccc(/C=C2\S/C(=N/S(=O)(=O)c3cccs3)NC2=O)cc1	-7	-17	nt	i	-2	0	-3	9
CN(C)/C(=N\S(=O)(=O)c1ccccc1)c1ccccc1	-1	7	-21	i	4	-2	0	7
COc1ccc(N2CC(NC(=O)NC(C)(C)C)CC2=O)cc1 (stereo unspecified)	2	11	nt	i	-11	1	5	-9
CSC1=NCCCN1C(=O)c1c(-c2ccccc2Cl)noc1C	8	11	-7	i	-4	-1	4	-4
CCCNS(=O)(=O)c1ccc(CCC(=O)N2CCN(c3ccc(OC)cc3)CC2)cc1	-5	nt	-7	i	2	5	-12	1
CC(C)(C)C1CCc2onc(C(=O)Nc3cnn(Cc4ccc(F)cc4)c3)c2C1 (stereo unspecified)	5	-6	0	i	-3	-3	1	-3
O=C(/C=C/c1ccc(-c2ccccc2[N+](=O)[O-])o1)c1ccc(F)cc1	4	nt	-15	i	17	12	14	12
CC(=O)Nc1ccc(NS(=O)(=O)c2cn(C)c(=O)n(C)c2=O)cc1	7	-44	-3	i	-7	-2	1	-5
CC(=O)Oc1ccc(C(=O)NCc2ccc3c(c2)OCO3)cc1	-2	-10	-23	i	-11	1	-1	-2
CC/C(=N\NC(C)=O)c1ccc(OC(F)F)cc1	-8	nt	nt	i	12	nt	nt	-11
COc1cc(-c2nc(CN(C)C(C)c3ccncn3)c(C)o2)ccc1F (stereo unspecified)	10	9	-9	i	-13	1	-2	-7
Cc1cccc(-c2nc(C#N)c(N3CCCCCC3)o2)c1	5	nt	-5	i	20	-3	0	4
CN(CC1CCOCC1)C(=O)CC1C(=O)NCCN1Cc1cccc(Oc2ccccc2)c1 (stereo unspecified)	11	-6	nt	i	11	nt	nt	3
Cc1ccc(S(=O)(=O)N2CCC(O)(c3cccnc3)CC2)cc1	-10	nt	-3	i	-27	5	3	-1
COc1cccc(CNC(=O)CCc2nnc(C3CCCCC3)o2)c1	-13	0	nt	i	-4	3	3	-6
CC1=C(C(N)=O)C(c2ccc(Cl)cc2)n2nc(CCCO)nc2N1 (stereo unspecified)	1	-10	-11	i	-9	6	7	6
COc1ccc(CCNC(=O)CSc2ccc3nnc(CCNC(=O)c4ccc(C)cc4)n3n2)cc1OC	4	-6	-9	i	-5	0	0	2
O=C1CCC(c2ccc(-n3ccnc3)cc2)=NN1	nt	-67	-13	i	-14	-12	0	nt
CC(Cc1ccccc1)NC(=O)C1(c2ccccc2)CCOCC1 (stereo unspecified)	-4	-55	0	i	-19	2	1	-8
O=C1CCC(c2ccccc2)=NN1	-1	-37	nt	i	-4	4	3	-3
COc1ccc(NC(=O)CN(C)C(=O)CCCNC(=O)c2ccc(Cl)cc2)cc1	nt	nt	nt	i	-13	4	-2	nt
COc1cc(C2C(C#N)=C(N)OC3=C2C(=O)CC(C)(C)C3)ccc1OCCN1CCOCC1 (stereo unspecified)	1	-12	nt	i	-19	-3	3	-3
COc1ccc(Nc2nnc(-c3ccc(C(N)=O)cc3)c3ccccc23)cc1	11	2	-20	i	-19	1	-1	-1

Other entries:
SMILES	PABP polyA inh	Env fusion inh	UUG fidelity	Rce1 inh	CSC inhib	MT1-MMP act inh	MT1-MMP act inh RFP	eIF4H inh
COc1cc(C(=O)OCC(=O)N2CCOCC2)c([N+](=O)[O-])cc1OC	12	-13	-3	i	-2	2	4	0
CCN1C(=O)CC(N2CCN(c3ccc(Cl)cc3)CC2)C1=O (stereo unspecified)	-1	nt	-8	i	-10	3	2	-9
CC(C)Cn1c(=O)c2ccccc2n2c(SCC(=O)N3c4ccccc4CC3C)nnc12 (stereo unspecified)	-4	nt	0	i	2	5	-2	1
O=C(c1ccc2c(c1)OCCO2)N1CCN(Cc2ccccc2)CC1	-2	-54	-14	i	-16	-9	-3	-4
S=C(NNC(=S)Nc1ccccc1)Nc1ccccc1	-3	-51	-17	i	4	6	0	12
O=C(O)COc1ccccc1/C=N/Nc1ccc(S(=O)(=O)Nc2ccc(Cl)cc2)cc1[N+](=O)[O-]	-6	3	nt	i	14	10	3	31
CC(Oc1ccc(Cl)cc1Cl)C(=O)NNC(=O)c1ccncc1 (stereo unspecified)	nt	0	nt	i	15	5	0	nt
CCCCOc1ccc(N=Cc2cccs2)cc1	-14	15	-15	i	2	6	6	1
Cc1cc2c(cc1C)/C(=C\C(N)=O)NC(C)(C)C2	0	nt	0	i	-6	-5	5	-4
Cc1csc2sc(-c3ccnc(SCC(=O)NCc4ccccc4)n3)c(C)c12	6	-55	13	i	48	0	-13	-7
Cc1nc(NC(=S)NC(=O)c2ccco2)sc1C(=O)N(C)C	4	-7	-10	i	0	-1	2	-4
COc1ccc(NC(=O)CSc2nc(N)c3cc4c(nc3n2)CCCC4)c(OC)c1	4	nt	-8	i	-8	4	0	0
CN(C(=O)c1coc(=O)c2ccccc12)c1ccccc1Cl	5	3	nt	i	2	2	4	9
Cc1ccc(F)c(Oc2cc(NN3CCCCC3)c([N+](=O)[O-])cc2[N+](=O)[O-])c1	1	?	3	i	24	-2	-5	-10
CC(OC(=O)c1cc2sccc2n1C)C(=O)NCc1ccc(F)cc1 (stereo unspecified)	1	0	-20	i	3	-4	-7	-10
O=C1CCCC2=C1C(c1ccsc1)CC(=O)N2c1ccccc1F (stereo unspecified)	14	-4	5	i	1	4	5	-2
CCOCC(=O)Nc1nnc(Cc2ccc(OC)cc2)s1	4	nt	nt	i	8	-2	1	0
COc1ccc2nc(Nc3nc(CSc4nnnn4-c4ccccc4)cc(=O)[nH]3)nc(C)c2c1	-5	-39	-25	i	47	14	3	-8
Cc1[nH]c2ccccc2c1/C=N/Nc1nncn1N	-3	-41	nt	i	6	4	3	-11
CC(=O)N(C)c1ccc(NC(=S)Nc2ccccc2)cc1	-6	nt	nt	i	-11	3	3	18
COCCCN1CC(=O)N2C(c3ccc(OC)c(OC)c3)c3[nH]c4ccccc4c3C[C@H]2C1=O (stereo partly specified)	-3	8	7	i	11	1	3	-10
O=C1CC(Sc2nnnn2-c2ccccc2)C(=O)N1c1cccc(Cl)c1 (stereo unspecified)	8	nt	-35	i	-14	4	2	-6
O=C(NCc1ccccc1)C1COc2ccccc2O1 (stereo unspecified)	14	nt	-2	nt	-1	1	5	4
COc1ccc(OC)c(S(=O)(=O)N2CCCC(C(=O)NCCc3ccccc3)C2)c1 (stereo unspecified)	2	-16	-6	i	-8	-3	-3	-8
COC(=O)C1=C(C)N(C)C(=O)NC1c1cc(Cl)c(O)c(OC)c1 (stereo unspecified)	-1	nt	-14	i	nt	5	2	-6
CCOC(=O)C(Cc1c[nH]c2ccccc12)NC(=O)c1ccco1 (stereo unspecified)	11	nt	-14	i	-12	-5	-1	-9

These rows are one share of the data. The share of hits here may be higher or lower than overall.
